Autofluor counter: counter-screen for toxin protease inhibitors: compound fluorescence; AID 624483; fluorescence intensity (test concentration not listed); compound autofluorescence counterscreen, microsphere flow cytometry; stronger effect = higher value; 360,000 compounds, 3.1% hits;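 active = at least 3 SD above the mean of all compounds, about 16000 in these data; inconclusive = too few beads counted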;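 note: 100 nL of 1 mM stock went into each well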
PrP UTR inh: suppresses PrP 5' UTR mRNA reporter expression. cell-based PrP 5' UTR mRNA reporter, plate reader. 340,000 compounds, 0.35% hits. inhibition, % (no concentration beside the values). AID 488862;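 active = every replicate at 50% or more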;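 note: 0 = median of the neutral control wells; tested in H4 reporter cells; numbers are from one replicate; inactives centre near -14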
Sa RN4220 lethal: S. aureus RN4220 growth inhibition | OD600, 16 h | 330,000 compounds, 0.33% hits | inhibition, % (concentration not given with the values) | AID 1259311;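 active = z-score of -3 or lower and OD600 up to 0.18 on both plates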;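 note: plate controls were untreated cells for no effect and reference antibiotic for full effect; stock transfer was 100 nL into about 80 µL; one replicate is shown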
Mtb hypoxia rep: Mtb hypoxia fluorescent reporter inhibition. M. tuberculosis hypoxia-regulated fluorescent reporter, fluorescence. 300,000 compounds, 0.1% hits. fluorescence inhibition, % (no concentration beside the values);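 active = 35 to 45% if threefold the growth effect, above 45% if 1.5-fold the growth effect; inactive = the rest, general growth blockers included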;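 note: wells of about 50 µL received 100 nL stock; 0% = vehicle wells and 100% = reference inhibitor wells; whole bacteria with a GFP reporter of the hypoxia response; strong numbers were not always called active; many hits fall short of the cut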
ugtP null kill: compounds lethal to S. aureus RN4220 ugtP deletion mutant; OD600 growth, 16 h; some inactives read as strong as hits; growth inhibition, % (test concentration not listed); 330,000 compounds, 0.54% hits; AID 1259309;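 active = z-score under -3 and OD600 up to 0.15 on both plates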;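 note: plate controls were untreated wells for no effect and antibiotic for full effect; wells of about 80 µL received 100 nL stock; the first replicate is given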
BJeLR viability: BJeLR cell viability loss | BJeLR (HRASV12) viability, CellTiter-Glo ATP luminescence, 48 h; reference of the scale not given here | inhibition, % (concentration not given with the values) | 300,000 compounds, 0.17% hits;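 active = replicate mean above 50%; inconclusive = above 50% but judged a plate artefact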;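 note: 50 nL library stock added to about 25 µL; numbers are from one replicate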
Mtb hypoxia rep growth: second read-out of Mtb hypoxia rep, no call of its own (marks repeat the call); growth inhibition, %; measured here: M. tuberculosis growth (absorbance);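 0% = vehicle and 100% = reference antibiotic; read after six days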
Numbers without * were called inactive; ? = inconclusive; · = no result given.

Every second line gives: Autofluor counter	PrP UTR inh	Sa RN4220 lethal	Mtb hypoxia rep	Mtb hypoxia rep growth	ugtP null kill	BJeLR viability
Cc1cc(C(=O)c2ccccc2)nc2ccccc12
    4302	10	2.9	-2	5	2	-1
CCOC(=O)c1c(C)[nH]c(O)c1C=Nc1ccccc1
    4114	-10	12	0	5	12	-28
Cc1cccc(C)c1OCCCCN1CCCCC1
    3118	1	3.6	5	7	2	10
Cc1ccnc(Nc2nc(-c3ccccc3)cs2)c1
    3429	-69	-9.8	-1	14	5	-5
COc1ccc2c(COC(=O)CCS(=O)(=O)c3ccc(C)cc3)cc(=O)oc2c1
    6230	-18	-1.8	-10	12	-5	-4
Cc1ccc(C(C)C)cc1OCC(=O)NC1CCCCCCC1
    ·	-24	-3.9	5	3	-4	1
CC(=O)Nc1cc(NC(C)=O)cc(C(=O)OCC(=O)c2ccc3c(c2)NC(=O)CO3)c1
    5710	16	1.7	2	-7	5	5
CC(=O)c1cccc(NC(=O)COC(=O)CCc2ccc(S(=O)(=O)N3CCOCC3)cc2)c1
    3536	-14	-1.9	7	3	5	-17
OCC[C@H]1C[C@@H](O)[C@H](O)[C@@]2(CCCO2)O1
    3238	-2	·	·	·	·	-6
CCc1ccccc1NC(=O)Nc1cccs1
    2571	-3	3.3	10	11	-1	2
COc1ccc(CCNC(=O)COc2ccc(-c3ccc(C)cc3)cc2)cc1OC
    5673	-20	3.1	6	10	-11	-8
CCOc1cccc(C(=O)Nc2cccc(NC(=O)c3ccco3)c2)c1
    4370	2	6.0	-1	18	0	4
COc1ccc(Cc2nc3ccccc3n2CC(=O)N/N=C/c2ccc(O)cc2)cc1OC
    2399	-13	·	·	·	·	-10
Cc1ccnc(N2C(=O)c3ccccc3C2Nc2ccc3c(c2)OCCO3)c1 (configuration not stated)
    6272	-24	2.9	·	·	8	-1
O=C(C1CCCN(Cc2ccccc2F)C1)N1CCCC1 (configuration not stated)
    3738	-8	0.6	-3	5	2	5
O=C(C1CCCCC1)N1CCC(CO)(Cc2ccccc2Cl)CC1
    2477	-21	5.1	2	13	6	5
CCOC(=O)Cn1nc(NC(=O)c2ccc3c(c2)OCO3)cc1C
    6043	-25	-4.3	4	8	5	8
O=C(COC(=O)/C=C/C(=O)N1CCN(c2ccccc2)CC1)NCc1ccc(F)cc1
    4285	-6	11	10	6	-73	12
CCC(C)Sc1nnc(CNC(=O)C23CC4CC(CC(C4)C2)C3)n1C1CCCCC1 (configuration not stated)
    1924	-11	4.4	-4	10	-3	1
O=C(CSc1nc2ccc([N+](=O)[O-])cc2[nH]1)c1ccc2ccccc2c1
    11555	-10	42	1	-6	4	-14
Cc1ccc2nc(-c3ccccn3)cc(C(=O)N3CCN(c4ncccn4)CC3)c2c1
    4397	-19	-1.6	·	·	5	·
CCCCS/C(N)=N/N=Cc1ccccc1O
    ·	·	0.3	4	0	0	·
c1ccc(Cc2noc(CN3CCCN(C4Cc5ccccc5C4)CC3)n2)cc1
    5008	-17	9.8	12	1	5	4
CCOC(=O)c1cc2oc(C)cc2n1CC(=O)OC1CCCCC1
    8015	-13	5.3	11	13	23	-14
O=C(COC(=O)c1cnccn1)Nc1cc(S(=O)(=O)N2CCOCC2)ccc1Cl
    3955	-19	1.4	11	8	0	·
CC(C(=O)NC(=O)NC1CCCCC1)N1CCN(c2ccccn2)CC1 (configuration not stated)
    7710	-8	3.3	8	15	-8	1
CCOc1ccc(NC(=O)CN(C)C(=O)C2CCN(C(=O)c3ccc(Cl)cc3)CC2)cc1OCC
    3334	-21	-5.9	-3	-4	-2	·
Cc1ccnc(NC(=O)c2ccc(NC(=O)CC3SC(N4CCCC4)=NC3=O)cc2)c1 (configuration not stated)
    4665	-22	2.5	2	0	8	-1
COc1ccc(OCCOC(=O)CNC(=O)c2cccc(C)c2)cc1
    ?	2	-1.5	2	3	-2	11
COC(=O)C1=CN(CCCN2CCCC2=O)C=C(C(=O)OC)C1c1ccccc1C(F)(F)F
    2503	-18	11	·	·	-4	8
O=C(NC(Cc1ccc2c(c1)OCO2)C(=O)N1CCCC1C(=O)O)c1ccccc1 (configuration not stated)
    7269	8	4.0	-2	-4	6	3
COc1ccc(C(=O)Nc2ccc(N3CCOCC3)cc2)cc1OC
    8172	-40	1.8	-1	-2	-5	21
O=C(NC(=S)NNC(=O)c1ccccc1O)c1ccc([N+](=O)[O-])cc1
    4309	-1	·	·	·	·	-4
Cc1nc2nc(C)c(CCC(=O)O)c(C)n2n1
    13240	-24	2.4	10	10	3	-2
CC1CN(C(C)CO)C(=O)c2cc(NC(=O)Nc3ccc(C(F)(F)F)cc3)ccc2OC1CN(C)C(=O)Nc1ccccc1 (configuration not stated)
    ·	·	-8.1	18	11	8	·
O=C(CCC1CCCN(Cc2ccc(O)c(Cl)c2)C1)NCc1ccccc1F (configuration not stated)
    4484	-15	3.6	7	14	1	6
O=C(CSc1cn[nH]n1)Nc1ccccc1F
    ·	-21	5.5	4	-12	6	-5
O=C1C=C(c2ccnc3cc(Cl)ccc23)CC(c2ccc3c(c2)OCO3)C1 (configuration not stated)
    ·	·	2.6	-6	3	6	·
CC(=O)Nc1cccc(N/C=C(\C=O)c2nc3ccccc3o2)c1
    10059	-25	·	·	·	·	13
COCCCNC(=S)N(CCCO)Cc1cc2cc3c(cc2[nH]c1=O)OCO3
    4066	-4	1.2	7	8	3	-4
CC1(C)CC(=O)C=C(NCCc2c[nH]c3ccccc23)C1
    6194	·	2.8	9	9	3	5
O=C(CSc1nnc(CCc2ccccc2)n1-c1ccc(Cl)cc1)NCc1ccccc1
    3962	-29	·	·	·	·	3
CC(C)Cc1nnc(NC(=O)CCC(=O)Nc2ccccc2)s1
    5465	2	1.9	1	0	7	-7
O=C(CCNS(=O)(=O)c1ccc(Br)cc1)NCCc1ccccc1
    5336	-9	-1.5	5	2	4	6
CC(C(=O)O)N1C(=O)c2cccc3cccc1c23 (configuration not stated)
    3641	-12	1.5	·	·	4	3
CSc1nc(C)cc(NC(N)=O)n1
    2078	-3	2.0	·	·	4	2
CC1(c2ccc3c(c2)OCCO3)NC(=O)N(CC(=O)Nc2ccccc2)C1=O (configuration not stated)
    3572	-31	-4.9	-11	-10	-6	·
O=C(Nc1cc(Cl)ccc1Oc1ccccc1)c1cnccn1
    3254	0	3.5	16	6	-4	-5
Cc1c(Cc2ccccc2)c(=O)oc2c(C)c(OCC(=O)N[C@@H](Cc3ccccc3)C(=O)O)ccc12
    5841	-18	5.2	·	·	8	-6
CCOC(=O)CNC(=O)Cn1cnc2sc(C)c(S(=O)(=O)N3CCOCC3)c2c1=O
    5274	-7	2.7	2	10	17	5
Cc1csc(NC(=O)c2ccc(=O)[nH]c2)n1
    3925	-14	-0.2	2	-7	0	-7
Oc1ccc(Cl)c(Cl)c1Cl
    6025	-2	1.3	10	15	1	·
Cc1ccc2c(CNCc3ccccc3)cc(=O)oc2c1
    5965	-31	10	4	-1	2	6
CC(C)C(=O)N=c1sc2cc(F)cc(F)c2n1C
    4630	4	0.8	12	10	3	3
NC(=O)CN(Cc1ccccc1)S(=O)(=O)c1ccc2c(c1)OCCO2
    6582	-9	0.8	-1	-2	-3	-2
O=C(OC1CCCCC1=O)c1cccc(S(=O)(=O)N2CCCCC2)c1 (configuration not stated)
    6641	-12	4.5	12	1	4	0
CC(C)c1ccccc1-n1c(SCC(=O)N2CCN(c3ccccc3)CC2)nnc1-c1cccnc1
    ?	10	-0.8	-6	4	-28	9
Cc1ccc2c(c1)CCCN2C(=O)CCc1nc2ccccc2c(=O)[nH]1
    6281	-13	6.5	3	12	3	·
O=C(CCSc1nnc(-c2ccccc2)o1)N1CCOCC1
    1978	-25	12	40*	13*	11	0
Cc1[nH][nH]c(=O)c1N=Nc1ccc(Br)c(Cl)c1
    3453	-22	4.2	8	13	-15	-4

Next section:
Every second line gives: Autofluor counter	PrP UTR inh	Sa RN4220 lethal	Mtb hypoxia rep	Mtb hypoxia rep growth	ugtP null kill	BJeLR viability
Cc1ccc(C)c(NC(=O)C2(C)CC3c4ccccc4C2c2ccccc23)c1 (configuration not stated)
    2636	-12	10.0	3	2	2	·
CCO[C@H]1OC(C(=O)N2CCN(Cc3ccccc3)CC2)=C[C@@H](c2ccccc2)[C@@H]1CCCO
    3505	-13	·	·	·	·	-1
CCOC(=O)C1=C(C)NC(=O)NC1c1cccnc1 (configuration not stated)
    2479	-31	2.2	·	·	-3	2
O=C1/C(=C\c2ccc(O)cc2)SC(=S)N1c1cccnc1
    2529	-19	·	·	·	·	-5
CCCC1CCC(C(=O)n2nc(N)c3cc4ccc(OC)cc4nc32)CC1 (configuration not stated)
    5672	-8	-1.4	-1	5	-4	-2
Cc1ccc(-c2nc(CSCC(=O)NCCN3CCN(Cc4ccccc4)CC3)c(C)o2)cc1
    17085*	-2	5.6	7	9	-16	4
Cc1ccoc1C(=O)Nc1ccc(CC(=O)O)cc1
    9346	64*	0.4	-17	-7	-4	5
CCCn1c(SCC(=O)Nc2cccnc2Cl)n[nH]c1=O
    5122	-5	1.3	5	6	-2	·
O=C(CC(c1ccccc1O)N1CCCCC1)N1CCCCC1 (configuration not stated)
    4136	-15	8.1	13	3	14	7
O=C(Oc1ccc2c(c1)OCO2)c1ccc(Br)c(S(=O)(=O)N2CCOCC2)c1
    23166*	1	1.3	9	7	8	-2
Cc1cc(NC(=O)c2cc(-c3ccccc3)on2)n(-c2ccccc2)n1
    4140	-37	4.7	4	6	4	-14
O=C1NC(=Nc2ccccc2)S/C1=C/c1cccnc1
    4313	-29	11	-4	6	17	-1
NCC12CC3CC(CC(O)(C3)C1)C2
    12747	-20	4.3	18	9	11	1
Cc1[nH]c(=O)[nH]c(=O)c1S(=O)(=O)Nc1ccc(F)c(Cl)c1
    3421	-12	5.0	-12	-3	5	-2
O=C(N/C(=C/c1ccccc1)C(=O)N1CCCCC1)c1ccc(Br)o1
    ?	-9	3.9	17	3	14	-9
O=C(CCNC(=O)C1CCN(S(=O)(=O)c2ccccc2)CC1)NC1CC1
    5793	-13	4.0	1	0	3	-3
N#C/C(=N\Nc1ccc(F)cc1)C(=N)N1CCCCCC1
    4301	-52	·	·	·	·	0
COC(=O)CSc1nc2cc3c(cc2cc1C#N)OCO3
    2878	-31	1.3	·	·	-13	1
Cc1ccccc1NC(=O)CN1C(=S)NC(C)(C)CC1C (configuration not stated)
    10069	-8	2.7	5	2	5	5
Nc1nnc(SCC(=O)c2ccc3ccccc3c2)s1
    4172	-66	2.4	·	·	-3	2
COc1ccc(S(=O)(=O)N2CCC(C(=O)N3CCc4ccccc4C3)CC2)cc1C
    11619	-23	-1.3	4	4	-2	-11
CCOc1ccc2[nH]c(=O)c(CN(CCOC)C(=O)N3CCOCC3)cc2c1
    9912	-7	2.9	8	9	-1	1
COC(=O)c1ccc(S(=O)(=O)NCc2cccc(OC)c2)n1C
    2629	-19	3.0	·	·	-5	-3
CN(C)CCCNC(=O)C1(O)c2cc(Br)ccc2NC(=O)N1c1ccc(Cl)cc1 (configuration not stated)
    3624	-25	2.7	16	5	8	-16
Cc1nn(-c2ccccc2)c(Cl)c1C=NNS(=O)(=O)c1ccc(Br)cc1
    ·	·	-4.0	8	-1	-20	·
CC(NCc1ccc([N+](=O)[O-])cc1)C1COc2ccccc2O1 (configuration not stated)
    3417	-5	3.2	-5	-3	4	-9
CC(C)CCN1C(=O)c2ccc(C(=O)OCC(=O)N(CC(C)C)C3CCS(=O)(=O)C3)cc2C1=O (configuration not stated)
    6394	-17	-0.5	-1	-6	-4	·
O=c1sc2ccccc2n1CCOc1ccccc1
    23573*	-61	8.7	10	10	6	-3

In a second layout: entries from further up.
SMILES: Cc1c(Cc2ccccc2)c(=O)oc2c(C)c(OCC(=O)N[C@@H](Cc3ccccc3)C(=O)O)ccc12
- Autofluor counter = 5841
- PrP UTR inh = -18
- Sa RN4220 lethal = 5.2
- Mtb hypoxia rep = ·
- Mtb hypoxia rep growth = ·
- ugtP null kill = 8
- BJeLR viability = -6
SMILES: CCOC(=O)CNC(=O)Cn1cnc2sc(C)c(S(=O)(=O)N3CCOCC3)c2c1=O
- Autofluor counter = 5274
- PrP UTR inh = -7
- Sa RN4220 lethal = 2.7
- Mtb hypoxia rep = 2
- Mtb hypoxia rep growth = 10
- ugtP null kill = 17
- BJeLR viability = 5

High-throughput results from PubChem BioAssay.
